Screening results from PubChem BioAssay.
CDC25B-CDK2 inh = human CDC25B-CDK2/CyclinA binding inhibition; AID 1259370; z-score (no concentration beside the values); HTRF CDC25B-CDK2/CyclinA binding, anti-His/anti-Flag; active compounds read high; P30305+P24941; hit rate 0.72% among 94,000;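 note: score is relative to mean and SD of negative controls; strong numbers were not always called active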
HIV TAR-Tat = HIV-1 TAR-Tat binding disruption | HIV-1 TAR RNA, Tat peptide displacement FRET; active compounds read high | z-score (no concentration beside the values) | hit rate 0.6% among 100,000 | AID 1259389;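 note: score is relative to mean and SD of negative controls; some compounds called inactive have numbers as strong as hits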
Starred values were filed as active, the others as inactive; nt = not tested or not shown.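 Rule for the calls: active = z-score from 3 up in half or more of its runs; inactive = the rest.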

Every second line gives: CDC25B-CDK2 inh	HIV TAR-Tat
> CCN(CC)CCNC(=O)C1CCN(c2ncnc3c2nc2n3CCCCC2)CC1
→ nt	-0.85
> CCOc1c(Cl)cc(CNCCSc2nnnn2C)cc1OC
→ -0.52	0.14
> CCC(=O)Nc1c(C(=O)N2CCN(C)CC2)oc2ccccc12
→ nt	0.73
> CC1=NN(c2ccc3ccccc3c2)C(=O)/C1=C\c1cc2c(cc1Cl)OCO2
→ -0.03	nt
> O=C(/C=C/c1cccs1)NC(=S)NCc1ccccc1
→ -2	nt
> Cc1nnc(NCc2ccccc2)c2c1nnn2Cc1ccc(F)cc1
→ 1.9	0.85
> Cc1ccccc1C(=O)CC1(O)C(=O)Nc2ccc(Br)cc21 (centres undefined)
→ nt	1.8
> COc1ccc(-n2ccc(=O)c(C(=O)Nc3nnc(C(C)C)s3)n2)cc1
→ -0.72	-1.1
> CCN1CCN(c2cc(NC(C)C)c3c4c(onc24)-c2ccccc2C3=O)CC1
→ -1.8	5.7*
> Cc1cccc(N2CSC3=C(C#N)C(c4ccccc4)CC(=O)N3C2)c1 (centres undefined)
→ 5.2*	-1.1
> C=CCC1(Nc2ccc3ccccc3c2)CCCCC1
→ 0.6	nt
> CN1CCN(C(=O)c2c(-c3ccccc3)c(-c3ccccc3)n[nH]c2=O)CC1
→ -1.4	1.8
> CC(=O)N1c2ccc(S(=O)(=O)N3CCCC(C(=O)N4CCc5ccccc54)C3)cc2CC1C (centres undefined)
→ nt	1.3
> COc1ccc(CCNc2nc3ccc(C)cc3n3nnnc23)cc1OC
→ nt	-2
> Cc1nc(-c2ccc(S(=O)(=O)NC(C)C)cc2)co1
→ nt	0.98
> CCOc1ccc(C2CC(c3c(O)n(C)c(=O)n(C)c3=O)=Nc3ccccc3S2)cc1 (centres undefined)
→ -0.81	0.9
> CCCc1cc(C(=O)Nc2c(C)n(C)n(-c3ccccc3)c2=O)no1
→ -0.14	0.86
> Fc1ccc(C2=NN(C(=S)NCc3ccccc3)CCC2)cc1
→ -1.1	nt
> O=C(NCCCN1CCCC1)C(=O)c1c[nH]c2ccccc12
→ -1.9	nt
> COCCCNc1nc(-c2ccc(OC)c(OC)c2)no1
→ -2.6	-1.1
> O=S(=O)(NCc1ccccc1)c1ccc(N2CCCCS2(=O)=O)cc1
→ nt	1.6
> CC1CCC(NC(=O)CCS(=O)(=O)c2ccc3c(c2)NC(=O)CO3)CC1 (centres undefined)
→ nt	-0.54
> CN1C(C(=O)c2ccccc2)=C(OC(=O)c2ccccc2Cl)c2ccccc2S1(=O)=O
→ -1.8	nt
> CCCCn1cc(S(=O)(=O)c2ccc(CC)cc2)c(=O)c2cc(F)c(N3CCOCC3)cc21
→ nt	-0.77
> O=C(NCCCO)c1nn(-c2ccc(F)cc2)nc1CO
→ 0.54	-0.05
> CCN(C(=O)NCc1noc2ccccc12)c1cc(OC)ccc1OC
→ nt	0.64
> CCCCC(=O)n1c(=O)oc2ccc(Cl)cc21
→ nt	-3.9
> CCCn1c(C)ccc(-c2noc(CCCC(N)=O)n2)c1=O
→ -1.5	0.32
> COc1cccc(-c2nc(=S)c3c([nH]2)Oc2c(C)cccc2C3)c1O
→ -1.3	1.6
> COc1ccccc1CN[C@H]1CS(=O)(=O)C[C@@H]1S(=O)(=O)c1ccc(Cl)cc1
→ -1.8	-1.5

Entries of single compounds, quoted from the list.
O=S(=O)(NCc1ccccc1)c1ccc(N2CCCCS2(=O)=O)cc1 is listed with CDC25B-CDK2 inh = nt; HIV TAR-Tat = 1.6
COc1ccccc1CN[C@H]1CS(=O)(=O)C[C@@H]1S(=O)(=O)c1ccc(Cl)cc1 is listed with CDC25B-CDK2 inh = -1.8; HIV TAR-Tat = -1.5
CC1CCC(NC(=O)CCS(=O)(=O)c2ccc3c(c2)NC(=O)CO3)CC1 (centres undefined) is listed with CDC25B-CDK2 inh = nt; HIV TAR-Tat = -0.54

More compounds
Every second line gives: CDC25B-CDK2 inh	HIV TAR-Tat
> CC(C)CCn1c(CN2CCN(CCO)CC2)nc2c1c(=O)n(C)c(=O)n2C
→ -0.76	-0.31
> COc1cc2ccccc2c(=O)c2ccsc12
→ -1.3	nt
> O=C(CCc1ccc(-c2ccc(F)cc2)o1)Nc1ncc(Cc2ccc(F)cc2)s1
→ -0.57	0.34
> Cc1cc(C)n(CC(=O)NC(C)C)c(=O)c1C#N
→ nt	0.41
> CCCCOc1ccccc1C1C=C(C(=O)O)Nc2nnnn21 (centres undefined)
→ nt	2
> O=C(Nc1ccc(Cl)cc1)c1cc2ccccc2o1
→ -0.49	nt
> O=C(Nc1ccc(F)cc1)C1=C(N2CCOCC2)c2ccccc2S1(=O)=O
→ nt	0.26
> C=CCOc1c(Br)cc(/C=C2\N=C(c3ccc(C)cc3)OC2=O)cc1OC
→ -0.11	nt
> COc1ccccc1CNc1nc(-c2ccc(OC)c(OC)c2)no1
→ nt	-0.24
> Cc1cc(NC(=O)CSc2nc3c(cnn3-c3ccc(F)cc3)c(=O)[nH]2)no1
→ 1.1	nt
> CN1CCN(Cc2cccn2-c2nnc(N3CCN(C4CCCCC4)CC3)s2)CC1
→ nt	1.6
> Cc1cc(N2CCC(NC(=O)Nc3ccc(F)cc3F)CC2)n2ncnc2n1
→ -0.85	0.38
> O=C1Cc2cccc3cccc1c23
→ -0.28	nt
> Cc1ccc2nc(Nc3cccc(C)c3C)c3nnnn3c2c1
→ nt	-1.8
> CC(c1ccccc1)C1CC(=O)N(Cc2ccco2)C1=O (centres undefined)
→ 1	-0.33
> OC12CCCCC1C1(O)CCCCC1C1(CCCCC1)O2 (centres undefined)
→ -1.6	nt
> CCOc1ccc(CCNS(=O)(=O)c2cn(C)cn2)cc1OCC
→ nt	0.89
> O=C(Nc1cnc2ccccn2c1=O)c1ccccc1Cl
→ -1.5	-0.78
> Cc1nnc(Sc2nc3c(c(=O)[nH]c(=O)n3C)n2Cc2ccccc2Cl)s1
→ 0	-0.36
> CCCNC(=O)NCc1c(C)nn(CC)c1C
→ nt	-0.2
> CC(C)C(=O)Nc1nc2c(s1)CC(C(C)(C)C)CC2 (centres undefined)
→ 0.24	1.9
> O=C(CN1C(=O)CCc2cc(S(=O)(=O)N3CCCC3)ccc21)Nc1nccs1
→ nt	1.3
> C=CCn1c(N2CCCCC2)nc2c1c(=O)n(C)c(=O)n2C
→ -1.2	0.54
> COc1ccc(Cc2nc3c4c(C)c(C)n(-c5ncccc5C)c4ncn3n2)cc1OC
→ 3.9	-0.82
> CCOc1ccc(S(=O)(=O)[C@H]2CS(=O)(=O)C[C@@H]2N2C[C@H](C)C[C@H](C)C2)cc1
→ -0.31	-0.08
> Cn1nnnc1SCCCNCc1ccc(-c2ccccc2F)o1
→ 0.58	0.76
> CCCC(=O)N1c2ncnn2C2(CCCCC2)[C@@H]2CCCC[C@@H]21
→ -1.3	0.32
> O=S(=O)(c1ccc2oc3ccc(S(=O)(=O)N4CCOCC4)cc3c2c1)N1CCOCC1
→ 0.43	nt
> COc1ccc(C2=C(C)C(Nc3cc(Cl)c(OC)cc3OC)=NS2(=O)=O)cc1
→ 0.12	-6.9
> COc1ccc(Cc2nc(-c3cccc(Br)c3)n[nH]c2=O)cc1
→ nt	1.4
> CC(C)NC(=O)c1cc2n(n1)C(C(F)(F)F)CC(c1cccs1)N2 (centres undefined)
→ 0.95	2.2
> O=C(CN1C(=O)c2cccnc2Oc2ccc(Cl)cc21)NCCN1CCOCC1
→ nt	-1
> Cc1ccccc1OCc1nc(-c2cccnc2)no1
→ -1.1	-0.03
> COC(=O)CC(CC(=O)OC)(c1cc(C)c(O)c(C)c1)c1cc(C)c(O)c(C)c1
→ -0.67	nt
> CCC[C@@H]1C(=O)OC[C@@H]1Cc1cncn1C
→ -1.6	nt
> COCCOC(=O)c1c(-c2ccccc2)c(-c2ccccc2)n[nH]c1=O
→ -1.6	1.9
> CCCNC(=O)Nc1ccc2nc(NS(C)(=O)=O)sc2c1
→ nt	1.1
> Cn1c(=O)c2c(nc(-n3ccnc3)n2Cc2ccc(F)cc2)n(C)c1=O
→ -0.85	-0.58
> Cc1cc(/C=N\NC(N)=S)c2c(C)ccc(C(C)C)cc1-2
→ -2.2	nt
> CC1(C)Cc2nc3sc4c(=O)[nH]cnc4c3cc2CO1
→ -1.1	nt
> CCOc1ccccc1C1C2=C(CCCC2=O)Nc2nnnn21 (centres undefined)
→ 0.21	0.05
> CC(C)c1ccc(-c2nc3ncccn3c2NCc2ccccc2)cc1
→ nt	0.54
> Cc1cc(N/N=C/c2ccco2)c([N+](=O)[O-])cc1[N+](=O)[O-]
→ -1.2	nt
> Cc1nc(Oc2ccc3c(c2)OCO3)c2c3c(sc2n1)CCCC3
→ -0.69	nt
> CCN1CCN(C(=O)c2cnc3sc(N4CCCCC4)nn3c2=O)CC1
→ nt	0.89
> Cc1ccc(-n2nc(C(=O)NC3CC3)c3c4ccccc4n(C)c3c2=O)cc1
→ -0.14	nt
> Cc1ccc(C)c(N2CCN(C(=O)[C@H]3[C@@H]4C[C@@H]5[C@H]3C(=O)O[C@@H]5C4)CC2)c1
→ -2.2	-0.45
> Cc1cc(N(C)C)n2nc(Cc3ccc(Cl)cc3)nc2n1
→ -0.26	1.8
> O=C(Nc1ccc(F)cc1F)N1CCCC1c1cccs1 (centres undefined)
→ -2	0.43
> Cc1nonc1NC(=O)CN1CCCCC1
→ 0.06	0.92

The list continues:
Every second line gives: CDC25B-CDK2 inh	HIV TAR-Tat
> COc1ccc(OCCNC(=O)c2ccccc2C(F)(F)F)cc1
→ -2.6	nt
> CCc1nc2nc(C)c(NS(=O)(=O)c3ccc4c(c3)CCCC4)c(=O)n2[nH]1
→ -1.2	-0.96
> O=C(Nc1nc(-c2cc3ccccc3oc2=O)cs1)c1ccccc1Br
→ -0.97	nt
> CCCc1cc(=O)n2nc(N(C)CC(=O)NCCN3CCN(C)CC3)sc2n1
→ 0.54	1.2
> CSc1ccc(CNc2nc3nc4c(c(=O)n3[nH]2)CCC4)cc1
→ -1.5	0.97
> CCCc1nnc(SCc2cc(=O)c3cc(C(=O)OCC)ccc3[nH]2)n1C
→ nt	0.46
> Cc1ccc2c(c1)CCCN2C(=O)c1cnn(-c2ccc(F)cc2)c1C
→ -0.71	nt
> O=C1CCCN1CCCNc1ccc2nnc(CCC(=O)N3CCN(c4ccc(F)cc4)CC3)n2n1
→ nt	0.77
> Cc1ccc(-n2nnc(S(=O)(=O)c3ccccc3)c2N)cc1
→ -1.6	0.21
> O=C(CN1C=NS(=O)(=O)c2ccccc21)Nc1ccc(F)cc1
→ nt	0.96
> Cc1ccc2sc(NC(=O)c3ccc4c(c3)OCCO4)nc2c1C
→ nt	0.83
> COc1ccccc1-c1cc(C(=O)NCc2ccc(F)cc2)no1
→ 0.6	nt
> COc1ccc(-n2nnnc2C2CCN(S(=O)(=O)c3ccccc3)CC2)cc1
→ -1.5	0.83
> COc1nc2ccccc2cc1-c1noc(C)n1
→ -1.6	1.2
> CC(C)c1onc(C(=O)N2CCN(c3ccc(F)cc3)CC2)c1[N+](=O)[O-]
→ -0.24	0.25
> Cc1cccc(CCNS(=O)(=O)c2cnc[nH]2)c1
→ -0.79	0.8
> NC(=O)c1c(NC(=O)CCc2ccccc2)sc2c1CCC2
→ nt	0.7
> COc1ccc(-c2c(N)n(-c3ccccc3)c(=O)c3cc([N+](=O)[O-])ccc23)cc1OC
→ -3.1	nt
> Cc1nn2c(=O)cc(CSc3nc4ccc(NC(=O)C(C)C)cc4s3)nc2s1
→ nt	-0.15
> O=C(c1ccc2c(c1)C(=O)N(Cc1ccco1)C2O)N1CCOCC1 (centres undefined)
→ -1.3	-0.93
> CNC(=S)NNC(=O)c1cnn(-c2ccccc2)c1N
→ 0.22	nt
> Cc1nc2sc(C(c3cccs3)N3CCN(C(=O)c4ccco4)CC3)c(O)n2n1 (centres undefined)
→ -0.82	nt
> O=C1CCCc2cc(S(=O)(=O)N3CCCC3C(=O)NC3CC3)ccc2N1 (centres undefined)
→ nt	0.31
> Cc1cccc(C)c1Nc1ncnc2ccccc12
→ -3.1	nt
> CCOc1nc(-c2ccccc2)ccc1-c1noc(-c2cccs2)n1
→ -0.5	-3.1
> O=C(c1ccc(Sc2ccccn2)c([N+](=O)[O-])c1)N1CC=CCC1
→ -1.2	nt
> CN1c2cc(Cl)ccc2-c2nc(SCC(=O)Nc3ccccc3F)ncc2S1(=O)=O
→ nt	0.44
> CCCc1cc(=O)n2[nH]c(COc3ccccc3)nc2n1
→ 0.19	-1
> CCCC12CN(C(C)=O)CC(C)(CN(C(C)=O)C1)C2O (centres undefined)
→ -0.58	1
> CC(=O)Oc1ccc2oc3c(c2c1)C(=O)CCC3
→ -0.92	2.6
> Cc1cc(-c2ccc(S(=O)(=O)Nc3ccc(C)c(N(C)C)c3)s2)on1
→ nt	-0.41
> CSC(=NCCc1ccc(Cl)cc1)NS(=O)(=O)c1ccccc1
→ 1.5	nt
> CCOc1ccc(CCNc2nc3cc(OC)c(OC)cc3c3nc(-c4cccnc4)nn23)cc1
→ -0.56	-0.11
> O=S(=O)(Nc1ccc(-c2ccno2)cc1)c1ccc(-n2cccn2)cc1
→ nt	1.7
> FC(F)(F)c1c[nH]c(=S)c(C(F)(F)F)c1
→ -1.2	nt
> O[C@H]1[C@H]2c3cc4c(cc3CN3CCC(=C[C@@H]1O)[C@H]23)OCO4
→ nt	2.4
> O=S(=O)(c1ccccc1)n1nc(-c2cccnc2)nc1NCc1ccc(F)cc1
→ 0.51	0.22
> N#Cc1nc(/C=C/c2ccc(F)cc2)oc1NC1CCCCC1
→ -0.02	0.08
> C(#Cc1ccccc1)CNCCSc1nnnn1-c1ccccc1
→ -0.11	1.1
> COc1ccc(OC)c(NS(=O)(=O)c2ccc3c(c2)N(C)CCO3)c1
→ nt	1.3
> Cc1cc(C)cc(NC(=O)NCc2c(-n3cccc3)sc3c2CCCC3)c1
→ -0.2	0.31
> Nc1ncnc2nc(SCCOc3ccccc3)[nH]c12
→ -1.6	nt
> Cc1c(C(=O)N2CCCCC2)c(S(=O)(=O)N2CCCC2)c(C)n1C
→ nt	-0.14
> NC(=O)C1(N2CCCCC2)CCN(S(=O)(=O)c2ccc(Br)cc2)CC1
→ -1.8	-0.12
